Tgondii IFNg: inhibitors of Toxoplasma gondii growth with IFN-gamma; AID 1259416; activity change, negative = inhibition, %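 (about 20 µM by stock and volumes)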; Toxoplasma gondii growth in IFN-gamma-treated host cells; hits give low values; reference of the scale not given here; 3.8% of 69,000 active;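 active = below -70%; inconclusive = fit judged invalid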;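 note: host cells are HeLa cells infected with Toxoplasma gondii; parasite growth read as luciferase light; one replicate is shown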
An asterisk follows results filed as active; u = inconclusive.

The first 7 compounds (preview)
Molecule	Tgondii IFNg
CCc1nc(SCC(=O)NCCc2nc3c(C)c(C)ccc3[nH]2)n[nH]1	47.0
CCCCc1ccc(Nc2ncnc3c2cnn3-c2ccc(Cl)cc2)cc1	-55.5
O=S(=O)(Cc1ccc(Cl)cc1)C1CCCCC1O (stereo unspecified)	7.2
Cc1nccn1Cc1cccc(C(=O)O)c1	-30.7
O=C(O)C1CC2(CCNCC2)CN1Cc1cn[nH]c1-c1ccc(F)cc1 (stereo unspecified)	-5.0
Cc1nnsc1C(=O)N1CCC(c2n[nH]c(=O)n2-c2ccccc2)CC1	0.2
CCCn1c(=O)c(-c2nc(-c3ccc(Br)cc3)no2)c(O)c2ccccc21	36.7

This part in full, from the first entry:
Molecule	Tgondii IFNg
CCc1nc(SCC(=O)NCCc2nc3c(C)c(C)ccc3[nH]2)n[nH]1	47.0
CCCCc1ccc(Nc2ncnc3c2cnn3-c2ccc(Cl)cc2)cc1	-55.5
O=S(=O)(Cc1ccc(Cl)cc1)C1CCCCC1O (stereo unspecified)	7.2
Cc1nccn1Cc1cccc(C(=O)O)c1	-30.7
O=C(O)C1CC2(CCNCC2)CN1Cc1cn[nH]c1-c1ccc(F)cc1 (stereo unspecified)	-5.0
Cc1nnsc1C(=O)N1CCC(c2n[nH]c(=O)n2-c2ccccc2)CC1	0.2
CCCn1c(=O)c(-c2nc(-c3ccc(Br)cc3)no2)c(O)c2ccccc21	36.7
C/C=C/c1ccc([C@H]2[C@@H](CO)N(Cc3cccnc3)C23CN(C(=O)CC)C3)cc1	-59.0

Copied from the results shown, 2 compounds:
Molecule	Tgondii IFNg
Cc1nccn1Cc1cccc(C(=O)O)c1	-30.7
O=C(O)C1CC2(CCNCC2)CN1Cc1cn[nH]c1-c1ccc(F)cc1 (stereo unspecified)	-5.0

Next entries
Molecule	Tgondii IFNg
CCN1c2ccccc2C(=O)NC12CCN(C(=O)c1ccc(C(F)(F)F)cc1)CC2	-32.9
Cc1cc(C2CCC2)nc(N2CCN(Cc3nccn3C)CC2)n1	9.6
CC(C)(C)c1ccc(S(=O)(=O)Nc2ccc(C34CC5CC(CC(C5)C3)C4)cc2)cc1	-96.2*
CC1CC(NC(=O)c2cc(C(F)(F)F)cc(C(F)(F)F)c2)CC(C)(C)C1 (stereo unspecified)	-13.6
O=C(Nc1ccc(-c2nc(-c3ccccc3)co2)cc1)NC1CCCCC1	-4.6
c1ccc(CNc2ccc(C3c4ccccc4Oc4ccccc43)cc2)cc1	-96.5*
CC(C)Cc1ncc2c(n1)CN(C(=O)c1sccc1Cl)C2	0.9
COc1cc(C(=O)N2CCc3c([nH]c4ccccc34)C2c2ccc(F)cc2)cc(OC)c1OC (stereo unspecified)	352.5

Remaining list, next part:
Molecule	Tgondii IFNg
O=C(CCn1cc(Cl)cn1)N1C[C@@H]2[C@H](C1)[C@H]1CC[C@@H]2O1	2.1
CC1(C)CCC(CN2CCN(c3ccc(C(=O)NS(=O)(=O)c4ccc(NCC5CCOCC5)c([N+](=O)[O-])c4)c(Oc4cnc5[nH]ccc5c4)c3)CC2)=C(c2ccc(Cl)cc2)C1	-79.9*
COc1ccc(OC)c(C2CCN(CCC(=O)Nc3nccs3)C2)c1 (stereo unspecified)	-66.3
CC(C)(C)C1CCc2c(sc3c2C(=O)NC(c2ccc(Br)cc2)N3)C1 (stereo unspecified)	87.1
Cc1nc(OCC(=O)Nc2ccccc2Cl)c2ccccc2n1	-15.2
CC(=O)N1CCOC2(CCCN(CCc3ccccc3)C2)C1 (stereo unspecified)	-10.4
COCCN1CCCc2sc(C(=O)N(C)C)nc21	1.7
Cc1cccc(S(=O)(=O)N2CCn3cc(CN(C)C)nc3C2)c1	-1.2

(cont.)
Molecule	Tgondii IFNg
CCCCC(=O)Nc1ccc(-c2nc(-c3ccc(C)cc3C)co2)cc1	-29.0
COC(=O)CCC(=O)Nc1ccc(N(C)C(C)=O)cc1	-1.3
COc1cccc(-n2c(=O)c(C(=O)NCC3CC3)c(O)c3cccnc32)c1	-32.2
CCS(=O)(=O)NCCc1csc(-c2cccc(F)c2)n1	24.1
Cc1ccc(-c2nc(CNC(=O)C3CCOC3)[nH]c2-c2ccccn2)cc1 (stereo unspecified)	-52.5
O=S(=O)(c1ccc(F)cc1)N1C2CCC1c1snnc1C2 (stereo unspecified)	-20.6
CCC(C)NCCOCCOc1ccc(Cl)c2ccccc12 (stereo unspecified)	-93.9*
CC(=O)c1csc(CS(=O)(=O)c2ccc(Cl)cc2)n1	-62.5

Next section
Molecule	Tgondii IFNg
COc1ccc(-c2nc3c(s2)CN(S(=O)(=O)c2ccc(F)cc2F)CC3)cc1	-95.4*
CCOc1ccc(-c2ccc(OCCNC(=O)c3sc(-c4ccccc4)nc3C)nn2)cc1	2.5
O=C(CSc1nnc2sc3ccccc3n12)c1ccc(Cl)cc1	58.3
Cc1ccc(/C=C/C(=O)N2CCCC(c3nc(CCNC(=O)C4CC4)cs3)C2)cc1 (stereo unspecified)	-66.8
Clc1ccc(-c2nc3c(c(NCCn4cccn4)n2)CNC3)cc1	-8.1
CN1Cc2ncn(CC3CC3)c2C(COCC2CCOCC2)C1 (stereo unspecified)	3.9
O=C1CCc2cc(S(=O)(=O)Nc3ccc4c(c3)OCCO4)cc3c2N1CCC3	-20.0
COC(=O)C[C@H]1CC[C@@H]2[C@@H](COc3ccc(NS(=O)(=O)c4ccc(C)cc4)cc3C(=O)N2C)O1	0.6

(list continues)
Molecule	Tgondii IFNg
COc1ccc(OC)c(NC(=O)N2CCC3(CC2)Nc2ccccc2-n2cccc23)c1	134.1
CCCNC(=O)C[C@H]1CC[C@@H]2[C@H](COC[C@@H](O)CN2Cc2ccncc2)O1	-45.8
O=C(Cc1cccnc1)NCc1ccc(-c2ccc(F)cc2)o1	-2.7
CCOc1cccc(CNn2cnnc2)c1OCc1ccccc1Cl	-3.9
CCOCC1c2c(cnn2CC2CC2)CCN1C(=O)c1cc(C)on1 (stereo unspecified)	-18.7
O=C(NCC1CCCOC1)c1cc(-c2cccs2)on1 (stereo unspecified)	220.9
Cc1cc(F)ccc1NC(=O)Cn1c(=O)cc(-c2nc(C3CC3)no2)c2ccccc21	56.1
CC(=O)C1=C(Nc2ccc(C)cc2)CC(C)(O)C(C(C)=O)C1c1ccco1 (stereo unspecified)	14.4

(more compounds)
mol,Tgondii IFNg
CCOc1ccc(NC(=O)C(=O)NCCc2sc(-c3cccc(F)c3)nc2C)cc1,6.4
Cc1ccc(NC(=S)N2CCCc3ccccc32)c(C)c1,16.8
Cc1noc(C)c1C(=O)N1CCSCC1,0.6
CCOC(=O)c1noc2nc(C)n(Cc3nc(-c4ccc(OC)cc4)oc3C)c(=O)c12,51.9
Cc1ccc(NC(=O)CC2COc3ccccc3O2)cc1C (stereo unspecified),5.9
CCCc1nc(N(C)Cc2nc3ccsc3c(=O)[nH]2)c2cnn(C)c2n1,34.0
C[C@H]1CCCCO[C@@H](CN(C)C(=O)Nc2ccc(C(F)(F)F)cc2)[C@@H](C)CN([C@@H](C)CO)C(=O)c2cc(NS(=O)(=O)c3cn(C)cn3)ccc2O1,30.1
Cc1cc(C)nc(NCCC(=O)Nc2ccc3c(c2)N(C)C(=O)C(C)O3)n1 (stereo unspecified),1.6
COCC1CN(Cc2cc(C)on2)Cc2cn(CC3CC3)nc21 (stereo unspecified),-11.2
CC(C)CN1CCS(=O)(=O)[C@H]2CCN(C(=O)Nc3ccccc3Cl)CC[C@@H]21,6.5
c1ccc(C(c2ccccc2)c2n[nH]c3c2CN(CCc2cn[nH]c2)CC3)cc1,-43.0
Cc1nc2c(c(N(C)C)n1)CCN(C(=O)CCc1c[nH]c3ccccc13)C2,-3.2

(cont.)
mol,Tgondii IFNg
C[C@H](CO)N1C[C@H](C)[C@@H](CN(C)C(=O)Cc2ccccn2)Oc2ncc(-c3cccc(C(=O)N(C)C)c3)cc2C1=O,224.7
COc1ccc(C#Cc2ccc3c(c2)[C@H]2[C@H](CCN2Cc2nccs2)[C@@H](CO)N3)cc1,13.5
CCOC(=O)c1cn(S(=O)(=O)c2ccc(F)cc2F)nc1C(F)(F)F,-13.4
Cc1noc(C)c1S(=O)(=O)N(C)C[C@H]1Oc2c(NS(=O)(=O)c3cn(C)cn3)cccc2C(=O)N([C@@H](C)CO)C[C@H]1C,9.9
CC(=O)Nc1ccc(NC(=O)C(=O)NCCc2csc(-c3ccc(C(F)(F)F)cc3)n2)cc1,101.3
CCc1ccc(NC(=O)c2c(O)c3ccccc3n(CC)c2=O)cc1,-15.8
O=C(Nc1sc(NC(=O)c2cccs2)nc1-c1cccs1)c1ccccc1,2.3
O=C(O)CSc1nc2ccccc2n1-c1ccccc1,15.0
Cc1cc(C(=O)N2CCC(C(NC(=O)C(C)(C)C)c3nccs3)CC2)on1 (stereo unspecified),3.0
Cn1cc(C2CCCCCN2S(=O)(=O)c2ccc(F)cc2)cn1 (stereo unspecified),-3.3
Cc1cc(C)c(NC(=O)Cn2c(=O)cc(C(=O)N3CCc4ccccc4C3)c3ccccc32)c(C)c1,8.0
COc1cccc(-n2cc(CN(C)Cc3cnc(N(C)C)nc3)cn2)c1,2.9

Remaining list, next part
mol,Tgondii IFNg
CCc1cc(CNC(=O)C2CCN(c3ccc(C(F)(F)F)cn3)CC2)on1,-0.8
CN(C)C(=O)COCc1nnn2c1CN(c1ncccn1)CCC2,-11.2
O=C(C1CCC1)N1CC(=O)N2[C@@H](CO)[C@@H](c3ccc(Br)cc3)[C@@H]2C1,32.1
C[C@@H]1CN([C@@H](C)CO)C(=O)c2cc(N(C)C)ccc2O[C@@H](C)CCCCO[C@@H]1CN(C)S(=O)(=O)c1cn(C)cn1,165.4
CN[C@H](CC(=O)O)C(=O)O,14.1
COc1ccc(NS(=O)(=O)c2ccc(NC(=S)NC(=O)c3cccs3)cc2)nn1,2.0
CN(C)CC1(O)CCN(C(=O)c2ccc(-c3nnn(C)n3)cc2)C1 (stereo unspecified),21.2
CCCNC(=O)N1CCC2(CC1)CN(Cc1cccc(OC)c1)[C@H](CO)c1[nH]c3cc(OC)ccc3c12,439.0
Cc1ccc(NC(=O)CNC(=O)C2CC(=O)N(CC(C)C)C2)c(F)c1 (stereo unspecified),9.1
CCOCC(=O)N1CCN(C23CC4CC(CC(C4)C2)C3)CC1,-6.9
Cc1cccc(NC(=O)c2c(O)c3cccnc3n(-c3ccccc3)c2=O)c1C,12.2
Cc1ccccc1N1CC2(CCN(c3cnccn3)C2)CC1=O (stereo unspecified),2.0

Further entries:
mol,Tgondii IFNg
CC(C)NC(=O)Nc1ccc2c(c1)C(=O)N(C)[C@@H]1CC[C@H](CC(=O)NCc3ccc(F)cc3)O[C@H]1CO2,-5.1
Cc1ccc(S(=O)(=O)Nc2ccc3c(c2)CC(=O)N([C@H](C)CO)C[C@@H](C)[C@@H](CN(C)S(=O)(=O)c2ccccc2)O3)cc1,6.5
COc1ccccc1NC(=O)CN1C(=O)CCc2cc(S(=O)(=O)N3CCCC3)ccc21,2.2
CC(C)(C)C(=O)OCC(=O)c1cc(C(F)(F)F)cc(C(F)(F)F)c1,-35.2
O=C(c1nccc2ccccc12)N1C2CCC1CC(c1ccc(F)cc1)C2 (stereo unspecified),-2.6
CC(NC(=O)c1cnc2ccccn2c1=O)c1ccncc1 (stereo unspecified),38.5
Cc1nn(C(F)F)cc1S(=O)(=O)Nc1ccccc1CN1CCCCC1,-9.7
O=C(c1ccc(-c2ccoc2)nc1)N1CCCN(C2CCCCC2)CC1,-23.2
C[C@H]1CN([C@@H](C)CO)C(=O)c2cc(NC(=O)NC3CCCCC3)ccc2O[C@@H]1CN(C)S(C)(=O)=O,-24.5
CC(=O)N1CCc2c(nc(C)nc2NCc2ccc3sccc3c2)C1,16.8
COc1cccc(-c2nc3c(s2)CN(C(=O)Nc2ccc(C)cc2C)CC3)c1,153.4
COc1cccc(-c2nc(Cn3c(=O)c4c(C)cc(C)nc4n(C)c3=O)c(C)o2)c1OC,2.0

Following part:
mol,Tgondii IFNg
CS(=O)(=O)N1CCc2ccc(=O)n(Cc3cccnc3)c2CC1,3.7
CO[C@H]1CN(C)C(=O)c2cc(NC(=O)c3ccc4c(c3)OCO4)ccc2OC[C@@H](C)N(CCC(F)(F)F)C[C@H]1C,u
Nc1nonc1-c1nnnn1CC(=O)Nc1cccc2ccccc12,-1.7
CC1CCN(S(=O)(=O)c2ccc3c(c2)CCC(=O)N3CC(=O)Nc2ccc(F)cc2F)CC1,4.1
O=C(NCCc1ccccc1)[C@H]1[C@H](CO)[C@H]2Cn3c(ccc(-c4cccc(F)c4)c3=O)[C@@H]1N2,-25.3
Cc1nn(CC(=O)NCC(C)C)c(=O)c2nc(-c3ccccc3)sc12,72.6
COC(=O)c1ccc(CSc2nc(-c3ccco3)cc(C(F)(F)F)n2)o1,8.3
CN1C(=O)c2cc(NC(=O)c3ccc4c(c3)OCO4)ccc2OC[C@@H]2O[C@H](CC(=O)O)CC[C@H]21,8.5
COCCNC(=O)[C@H]1[C@H](CO)[C@H]2Cn3c(ccc(-c4ccc(F)cc4)c3=O)[C@@H]1N2C(=O)NC(C)C,-9.8
COc1ccc2nc(Nc3nc(CSc4ccc(C)cc4)cc(=O)[nH]3)nc(C)c2c1,13.5
CCCCS(=O)(=O)N1CCC2(CC1)CC(CC(=O)N1CCCC1)c1ccccc12 (stereo unspecified),-55.2
COC(=O)[C@@H]1C[C@H](NC(=O)C2=NN(C)C(=O)CC2)CN1C,14.0

Overlap with the part before: three compounds; new compounds follow.
mol,Tgondii IFNg
COc1ccc2nc(Nc3nc(CSc4ccc(C)cc4)cc(=O)[nH]3)nc(C)c2c1,13.5
CCCCS(=O)(=O)N1CCC2(CC1)CC(CC(=O)N1CCCC1)c1ccccc12 (stereo unspecified),-55.2
COC(=O)[C@@H]1C[C@H](NC(=O)C2=NN(C)C(=O)CC2)CN1C,14.0
CN(C)C(=O)CN1CCc2ncc(Cn3cncn3)n2CC1,5.7
Cc1ccc(NC(=O)CN2CCC3(CC2)N=C(c2cccc(Cl)c2)C(=O)N3)cc1,-13.8
COc1cc(COC2CN(C(=O)c3csc(SC)n3)CC(=O)N(C(C)C)C2)cc(OC)c1 (stereo unspecified),-6.3
COc1cccc(Nc2nc(N)nc(CSc3nnc(C)s3)n2)c1,23.9
O=C(NCc1ccccc1)N1CCC2(CC1)Nc1cc(F)ccc1-n1cccc12,146.2

Individual results from the entries so far.
Tgondii IFNg, COc1cccc(Nc2nc(N)nc(CSc3nnc(C)s3)n2)c1 is entered as 23.9
Tgondii IFNg, CN(C)C(=O)CN1CCc2ncc(Cn3cncn3)n2CC1 is entered as 5.7

Screens (PubChem)

Only part of the results is shown (hit frequency here may not be typical).
